Assay outcomes deposited in PubChem BioAssay by Fisher Drug Discovery Resource Center.
NPYLR7 agonist = agonists of mosquito NPYLR7 receptor, primary screen, cell-based, Aedes aegypti, calcium fluorescence, mosquito biting behavior. HEK293T NPYLR7/Galpha15, GCaMP6s calcium fluorescence. activation, % at 10 µM. 0.15% of 270,000 active; in the data active = activation above about 40%;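 also: 0% = vehicle and 100% = reference agonist at the receptor; some compounds past the cut are filed as inactive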
NPYLR7 agonist max-min = further read-out of NPYLR7 agonist, marked with its call; activation, %; measured here: Max-Min RFU normalised activation; some inactives read as strong as hits;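 span of the calcium signal over five minutes; 0% = vehicle and 100% = native peptide agonist; compound fluorescence can raise it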
* hit, by the source's call; & = joins results of further samples. Some of the compounds tested; the hit share may differ from the screen's.

Every second line gives: NPYLR7 agonist | NPYLR7 agonist max-min
- Cc1ccc(-c2csc(-c3c(C)nc4sccn34)n2)cc1C
→ 5 | 6
- CN(C(=O)Nc1ccccc1-n1cccn1)C1CCCCC1
→ 3 | 3
- COc1ccc(-c2nnc(SCC(=O)N3CCCC(C)C3)n2CC2CCCO2)cc1 (stereo not drawn)
→ -5 | -9
- CC(=NOCC(=O)Nc1cc(C)on1)c1cccs1
→ 3 | 1
- CC(=O)C(C)Sc1cc(C)nc2c(-c3ccccc3)cnn12 (stereo not drawn)
→ -2 | -4
- COC(=O)CCN1CC(OCc2cccc(OC)c2)CN(C(=O)C2CCCCC2)CC1=O (stereo not drawn)
→ 6 | -4
- CCOc1cc(-c2nccn2CCc2nc(C)cc(C)n2)ccc1O
→ 4 | -3
- CN(CC1CCOC1)C(=O)CCOc1ccccc1F (stereo not drawn)
→ 1 | -1
- Cc1ccc(N2CCn3c2nnc(C(=O)NCCCn2ccnc2)c3=O)cc1
→ 10 | 10
- COCCN(C)Cc1ccnc(NC(=O)Cc2ccc(C)nc2)c1
→ 1 | -2
- Cc1ccc(NC(=O)c2cc(-c3ccc(F)cc3)nc3ccccc23)cc1F
→ -17 | -22
- Cc1cccc(C)c1N(Cn1cccn1)C(=O)C(Cl)Cl
→ 2 | 2
- COc1ccc(-c2nn(C)c(=O)c3ccccc23)cc1CNC(=O)c1ccc(C)cc1
→ -7 | -10
- CN(Cc1cc2n(n1)CCNC2)CC1COc2ccccc2O1 (stereo not drawn)
→ 2 | 2
- COc1cc2c(cc1OC)C(C(C)C)N(C(=O)C(C)(C)OC(C)=O)CC2 (stereo not drawn)
→ -1 | -6
- CN(C)c1cccc(-c2cc(C3(CNCc4ccccc4F)CC3)ccn2)c1
→ 12 | 27
- Cc1nc2n(n1)C(=O)C(C(c1ccc(C(C)C)cc1)N1CCN(C)CC1)S2 (stereo not drawn)
→ 1 | -4
- O=C(NC1CCCC1)N1C[C@H](Oc2ccccn2)[C@H]2C[C@@H]1CC[C@H]2N1CCOCC1
→ 1 | 11
- CC(C)CN(Cc1cnn(C)c1)C(=O)COc1cccc(Cl)c1
→ 0 | 2
- O=C(N=Nc1c(O)[nH]c2ccc(F)cc12)C1COc2ccccc2O1 (stereo not drawn)
→ -3 | -3
- Clc1ccc(N/N=C\C2=C(N3CCOCC3)C(=C/c3ccccc3)/CC2)cc1
→ -2 | -4
- COc1ccc(C(=O)Cn2c(=N)n(N)c3ccccc32)cc1
→ -8 | -13
- COCc1[nH]n(-c2ccc(Cl)c(Cl)c2)c(=O)c1C1=C(N2CCOCC2)C(=O)N(c2cc(C)ccc2OC)C1=O
→ 4 | 15
- CCn1nnc2c(N3CCN(c4ccccc4OC)CC3)ncnc21
→ 10 | 5
- O=C(NC(c1ccc(F)cc1)c1ccc2ccccc2n1)C1CCN(CCOc2ccc(Cl)cc2Cl)CC1 (stereo not drawn)
→ -9 | -3
- Cc1ccc(-n2[nH]c(C(=O)N3CC4(CC4)c4ccccc43)cc2=O)cc1
→ 0&-3 | -2&40
- CCOC(=O)C1(C)CCCCN1C(=O)c1c(F)cccc1F (stereo not drawn)
→ 0 | -3
- Cc1cc(C)n(CCc2c(-c3ccccc3)ncn2CCN2CCOC2=O)n1
→ 2 | 1
- COc1ccccc1C(=O)NCc1ccc(-c2ncc(-c3ccc(F)cc3)[nH]2)cc1
→ 3 | -2
- Cc1cc(-c2csc(NC3CC3)n2)c(C)n1Cc1cccs1
→ 12 | 16
- CCOc1ccc(NC(=O)C2CC23c2ccccc2-c2ccccc23)cc1 (stereo not drawn)
→ 10 | 9
- O=C(Nc1cnc2n1CCCC2)c1cc(-n2cccn2)ccc1Cl
→ 8 | 5
- CS(C)(=O)=O
→ -6 | -13
- Cc1cc(C)n(CC(C)NCc2nc(-c3cccnc3)no2)n1 (stereo not drawn)
→ -19 | -19
- O=C(C(=O)N1CCc2c([nH]c3ccccc23)C1c1cccc(Cl)c1)c1ccccc1 (stereo not drawn)
→ -1&-9 | -5&-13
- Cc1ccc(C)n1-n1cnc2sc3c(c2c1=O)CCCCC3
→ -3 | -6
- O=C(NC(=S)NC1C2CC3CC(C2)CC1C3)c1cccs1 (stereo not drawn)
→ 17 | 9
- Cn1cccc1CN1CCC(C(=O)NC(c2ccc(Cl)cc2)c2cnccn2)CC1 (stereo not drawn)
→ 12 | 12
- O=C(CCc1ccccc1)Nc1ccc(Nc2ccc(-n3cccn3)nn2)cc1
→ -3 | -8
- COc1ncc(CN2CCNC(C(=O)NCc3ccncc3)C2)cn1 (stereo not drawn)
→ 0 | 1
- CCOC(=O)c1c(C)[nH]c(C(=O)N2CCCC(C(=O)c3ccccc3OC)C2)c1C (stereo not drawn)
→ 2 | 1
- CC(=O)c1ccc(NC(=O)c2ccc3c(c2)C(=O)N(c2cccc(C)c2C)C3=O)cc1
→ 2 | 3
- CC1(C(=O)NCCc2ccccn2)CCN1Cc1ccccc1OC(F)F (stereo not drawn)
→ 4 | -1
- Cc1ccc2c(c1)c(CNC1CCN(C(=O)C3CCCO3)CC1)nn2C (stereo not drawn)
→ 4 | 13
- C[C@@H]1CN(C2(C(=O)NCc3n[nH]c4c3CCC4)Cc3ccccc3C2)C[C@H](C)O1
→ 5 | 1

Six compounds picked at random from the list so far, as already listed:
Every second line gives: NPYLR7 agonist | NPYLR7 agonist max-min
- C[C@@H]1CN(C2(C(=O)NCc3n[nH]c4c3CCC4)Cc3ccccc3C2)C[C@H](C)O1
→ 5 | 1
- CC1(C(=O)NCCc2ccccn2)CCN1Cc1ccccc1OC(F)F (stereo not drawn)
→ 4 | -1
- O=C(Nc1cnc2n1CCCC2)c1cc(-n2cccn2)ccc1Cl
→ 8 | 5
- CCOC(=O)c1c(C)[nH]c(C(=O)N2CCCC(C(=O)c3ccccc3OC)C2)c1C (stereo not drawn)
→ 2 | 1
- O=C(NC(=S)NC1C2CC3CC(C2)CC1C3)c1cccs1 (stereo not drawn)
→ 17 | 9
- O=C(C(=O)N1CCc2c([nH]c3ccccc23)C1c1cccc(Cl)c1)c1ccccc1 (stereo not drawn)
→ -1&-9 | -5&-13

The list continues.
Structure	NPYLR7 agonist	NPYLR7 agonist max-min
COc1ccc2nc(N(Cc3ccccc3)C(=O)c3ccc([N+](=O)[O-])o3)sc2c1	-2	-6
COCCCNC(=O)c1cc(-c2ccccc2)nc2cc(C(C)(C)C)nn12	21	16
CC(Nc1cccc(NC(=O)CO)c1)c1ncc(C(C)(C)C)o1 (stereo not drawn)	10	6
Cc1ccccc1SC1CCN(C(=O)c2cn(CCN3CCOCC3)nn2)CC1	5	3
CCc1nc2ccc(C(=O)N3CCN(C)CC3)cn2c1N(C)CCN1CCOCC1	5	9
Cc1nc(C(=O)NCc2cccnc2N(C)C)cs1	22	8
O=c1[nH]nc(C2CC2)c2cnn(-c3ccccc3)c12	-4	-6
C=CCNC(=O)N1CCN(C(C(=O)N2CCc3ccccc3C2)C2CCCC2)CC1 (stereo not drawn)	-4	-2
Cc1cccc(OCc2ccc(-c3nc(C#N)c(N4CCOCC4)o3)o2)c1	0	3
O=C(NCc1ccc2c(c1)OCO2)c1cccnc1N1CCN(S(=O)(=O)c2ccc(Cl)s2)CC1	12	6
CCCCN(C=O)c1c(CC)nc2c(OCC(=O)N3CCOCC3)cccn12	7	11
CCc1ccc(-c2nccn2CCCn2ccnc2)nc1	16	5
CC(C)C/C=C(\CN1CCN2C(=O)CNC(=O)C2C1)c1ccccc1 (stereo not drawn)	-6	-5
CC(C)NC(=O)Cn1nc(-c2ccc(F)cc2)c2sc(N3CCOCC3)nc2c1=O	-4	-6
COc1ccc(-c2cc(C(=O)N3CCN(C(=O)c4ccc(F)cc4)CC3)c(C)n2-c2ccc(C)cc2)cc1	-6	-1
CN(C)C1CCN(C(=O)C2(N(C)Cc3ccccc3)Cc3ccccc3C2)C1 (stereo not drawn)	-4	-6
Nc1ccc(C(=O)N=Nc2c(O)[nH]c3ccc(Br)cc23)cc1	-1	-6
CCn1c(C2CCN(C(=O)c3ccc4sc(C)nc4c3)CC2)n[nH]c1=O	6	6
CC1(C(=O)NS(=O)(=O)c2cccc(OC(F)F)c2)CCN1C(=O)CC1CCCCC1 (stereo not drawn)	2	0
CCOc1ccccc1C(=O)N1CCC(c2nc(-c3ccc4c(c3)OCO4)no2)CC1	10	5
CC(NC(C)C(C)C)C(=O)NC(=O)NCc1ccccc1 (stereo not drawn)	1	0
CC1CCCCC1NC(=O)c1ccc(S(=O)(=O)N2CCCC2)cc1 (stereo not drawn)	6	6
Cc1ccc(CN2CCN(Cc3c(C)nc4sccn34)CC2CCO)o1 (stereo not drawn)	14	8
CCCS(=O)(=O)N1CCCC(C(=O)N2CCN(c3oc(C4CC4)nc3C#N)CC2)C1 (stereo not drawn)	0	7
NC(=O)N1CCN(C(=O)c2ccc(CSc3ccccn3)cc2)CC1	11	6
CN1CC2(CCN(C(=O)c3ccc(Cl)cc3O)CC2)CC1C(=O)O (stereo not drawn)	-4	-8
COc1cc(CNc2nccn3ccnc23)cc(OC)c1	-1	-3
CCN(Cc1cccc(C(=O)Nc2cn(C)nn2)c1)[C@H]1COC[C@@H]1O	20	8
N=C1c2ccccc2CN1c1ccc(-c2ccc(N3Cc4ccccc4C3=N)cc2)cc1	-1	-3
CCc1ccc(C2COCCN2C(=O)c2ccc3c(c2)CCCC(=O)N3)o1 (stereo not drawn)	-20	-23
CCn1c(C2CCCN(C(=O)COc3ccc4c(c3)OCO4)C2)n[nH]c1=O (stereo not drawn)	1	-7
O=C(Nc1cc(Cl)cc(Cl)c1)N(CCO)Cc1ccccc1Br	2	1
CC1(C(=O)NS(=O)(=O)c2cccc(OC(F)F)c2)CCN1C(=O)COc1ccc(Cl)cc1 (stereo not drawn)	6	4
CCCCOc1ccccc1-c1cc(C(=O)N/N=C\c2ccc(O)cc2)[nH]n1	2	3
Cc1ccc(N(C)S(=O)(=O)c2c(C)noc2/C=C/N(C)C)cc1	4	2
Cc1ccc(C(=O)c2c(N)c(C(=O)Nc3ccccc3)c3ccccn23)cc1	14	5
Cc1cccc(C(=O)N2CCN(C(C(=O)Nc3ccc(F)cc3)C3CCCC3)CC2)c1 (stereo not drawn)	-2	8
O=C(NCc1cccnc1)c1ccc(N2CCC(NCc3cccc(C(F)(F)F)c3)CC2)cc1	21	8
CCN(CC)c1ncccc1CNC(=O)CN1CC(c2ccccc2)CC1=O (stereo not drawn)	17	7
Cc1cccc(-c2nc(C)c(Cc3ccccc3)c(N3CCN(S(=O)(=O)c4c(C)cc(C)cc4C)CC3)n2)c1	-12	-7
Nn1ccc2nc3ccn(Cc4ccccn4)c(=O)c3cc2c1=O	3	0
Cc1ccccc1NC(=O)N1CCC2(CC1)SCCN2C(=O)COc1ccc(Cl)cc1	8	17
COc1ccc(C)cc1-n1c(SCC(=O)O)nnc1-c1cc(C)nn1C	8	20
CC1CC(C)CN(S(=O)(=O)c2ccc(NC(=O)CSC3=NCCN3)cc2)C1 (stereo not drawn)	1	-2
COc1cc(NC(=O)c2ccc(Cl)c(N3CCCC3=O)c2)c(OC)cc1Cl	3	5
COc1ccc(NC(=O)NCCOc2cc(N3CCCC3)ncn2)c(OC)c1	0	-2
CCN(C/C=C/c1ccccc1)C(=O)CC1=CCNCC1	18	10
Cn1cnc(S(=O)(=O)N2CCCCC2c2cc(C(=O)NCc3ccc(F)cc3)no2)c1 (stereo not drawn)	1	-1
COc1ccccc1C1SCC(=O)N1CCN1CCN(C(=O)c2ccccc2Cl)CC1 (stereo not drawn)	5	6
CCOc1ccc(NC(=O)N2CCN(C(c3ccc(F)cc3)c3ccc(F)cc3)CC2)cc1	4	11
O=C(CNCc1ccccn1)Nc1cc(S(=O)(=O)N2CCCCC2)ccc1Cl	-2	-2
Cc1cccc(-n2ccnc2CN2CCCC(N3CCC(CO)CC3)C2)c1 (stereo not drawn)	12	-2
COc1ccc(OC)c(C2NC(=O)N(C)C3=C2C(=O)N(CCc2ccc(OC)c(OC)c2)C3)c1 (stereo not drawn)	3	15
Cc1ccc(-n2c(CCC(=O)N3CCc4ccccc4C3)cc3c2-c2ccccc2OC3)c(F)c1	1	-1
c1cncc(COC2CCCN(Cc3ccc4nonc4c3)C2)c1 (stereo not drawn)	9	3
CC(=O)Nc1sc2c(c1C(=O)Nc1cccc3ccccc13)CCC(C)C2 (stereo not drawn)	-10	-20
COC(=O)C(c1ccc(F)cc1Cl)C1C=CC(NC(=O)c2ccc(OC(F)(F)F)cc2)C1 (stereo not drawn)	2	-1
CNc1ncccc1C(=O)NCC1CCN(Cc2cnc(C)[nH]2)C1 (stereo not drawn)	31	19
COCCCNc1nc2ccccn2c(=O)c1C=C1SC(=S)N(C2CCCCC2)C1=O	1	28
CCNC(=O)N1CCN(S(=O)(=O)c2cccc(F)c2)CC1	6	1

Some of these compounds in order of count of non-hydrogen atoms, highest first:
Structure	NPYLR7 agonist	NPYLR7 agonist max-min
CCOc1ccc(NC(=O)N2CCN(C(c3ccc(F)cc3)c3ccc(F)cc3)CC2)cc1	4	11
COC(=O)C(c1ccc(F)cc1Cl)C1C=CC(NC(=O)c2ccc(OC(F)(F)F)cc2)C1 (stereo not drawn)	2	-1
Cn1cnc(S(=O)(=O)N2CCCCC2c2cc(C(=O)NCc3ccc(F)cc3)no2)c1 (stereo not drawn)	1	-1
COc1ccc(NC(=O)NCCOc2cc(N3CCCC3)ncn2)c(OC)c1	0	-2
Cc1cccc(-n2ccnc2CN2CCCC(N3CCC(CO)CC3)C2)c1 (stereo not drawn)	12	-2

(list continues)
Structure	NPYLR7 agonist	NPYLR7 agonist max-min
C=CCCC(O)(CCC=C)c1ccc(CN(Cc2ccc(C)o2)CC2CCCO2)o1 (stereo not drawn)	2	14
COc1ccc(C2c3cccn3-c3ccccc3N2C(=O)CN(C(=O)c2ccc(Cl)cc2Cl)C(C)C)cc1 (stereo not drawn)	-7	2
COc1ccc(F)c(F)c1-c1c(-c2ccccc2)ncn1CCC1CCCN1C (stereo not drawn)	3	3
Cc1nnc2c(N3CCCC3)nc3ccccc3n12	9	9
COc1cc(C=CC(=O)N2CCN(c3nc(-c4ccccc4)ns3)CC2)ccc1OCc1ccccc1	0	-6
